Bioassay records from PubChem.
TRPML1 agonist: activates the human TRPML1 channel; Q9GZU1; 0.12% of 410,000 active; TRPML1-expressing cells, Ca2+ dye fluorescence, FDSS; host cell line not named in the record; reference of the full effect not given here; activation, % (no concentration beside the values); in the data active = activation above about 50%; inconclusive = about 30% to 50%; inactive = below about 30%; note: 0% is about no effect; the text of the record puts the active cut at 80%
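Kinetic FDSS Ca2+ read in Tet-induced TRPML1-DL cells (ABD Ca8 dye plus quencher, 45-90 min RT loading): baseline, then compound, then 110 s agonist window; EC80 agonist 54-4 at 4uM final added afterwards for a 110 s antagonist window.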
D2 agonist: agonists of human D2 dopamine receptor (beta-arrestin); 0.084% of 360,000 active; activation, % (test concentration not listed); P14416; DiscoveRx PathHunter D2 beta-arrestin, luminescence, 90 min; 100% = 57 uM dopamine signal; AID 624465; in the data active = activation above about 40%; inconclusive = about 15% to 40%; inactive = below about 15%; note: compound concentration not given in the record; the text of the record calls up to 30% inactive
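DiscoveRx PathHunter D2 beta-arrestin cells (2,100/well) attached overnight, then compound-stimulated 90 min at 37 C in HBSS/10 mM HEPES/0.1% Tween-20 buffer; beta-galactosidase complementation read by luminescence after 1 h at ambient temperature. Dopamine 57 uM final (EC100) as control.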
CtBP-E1A inh: CtBP/E1A binding inhibition. AlphaScreen GST-E1A/His-CtBP binding, 1536-well; active compounds read low; control for the full effect not named in the record. 0.49% of 340,000 active. AID 651724. activity change, % (concentration not given with the values); in the data active means activity change below about -65%; inconclusive means about -30% to -65%; inactive means above about -30%; note: % is set by controls: 0 for no effect and ±100 for the full control effect
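Homogeneous bead-based format: GST-tagged E1A captured on glutathione donor beads, His-tagged CtBP on nickel acceptor beads; compounds precede bead addition by 2 h at 37 °C.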
PINK1 expr mod: modulators of PINK1 expression; Potency, µM (top dose mostly 76.6 µM), for inactives: top-dose activation (PINK1 increase), most hits filed as activators; PINK1 immunofluorescence, high-content cytometry, 24 h; 0.2% of 410,000 active; AID 624263; active = well fitted activation curve with a large enough effect; inconclusive = small, poorly fitted or top-dose-only effect; inactive = flat fitted curve, though single readings scatter; cell line not stated here;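 note: potency is the fitted concentration of half-maximal effect; % of control where 0% means no effect; nearly all actives have a fitted effect of over 65% in size; a mitochondrial uncoupler was the plate control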
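PINK1 protein, normally rapidly degraded, was detected by immunofluorescence after 24 hour compound treatment of a stable cell line. Titration data (5 concentrations) came from laser-scanning cytometry, with CCCP-treated wells as controls.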
Six1-Eya2 blk: Six1/Eya2 interaction inhibition. Q15475+O00167. AlphaScreen GST-Six1/His-Eya2 binding, biochemical; active compounds read low; control for the full effect not named in the record. activity change, % (concentration not given with the values). 0.56% of 360,000 active. AID 651725; in the data active = activity change below about -65%; inconclusive = about -30% to -65%; inactive = above about -30%; note: % is set by controls: 0 for no effect and ±100 for the full control effect
Target sequence (O00167 whole entry, looked up): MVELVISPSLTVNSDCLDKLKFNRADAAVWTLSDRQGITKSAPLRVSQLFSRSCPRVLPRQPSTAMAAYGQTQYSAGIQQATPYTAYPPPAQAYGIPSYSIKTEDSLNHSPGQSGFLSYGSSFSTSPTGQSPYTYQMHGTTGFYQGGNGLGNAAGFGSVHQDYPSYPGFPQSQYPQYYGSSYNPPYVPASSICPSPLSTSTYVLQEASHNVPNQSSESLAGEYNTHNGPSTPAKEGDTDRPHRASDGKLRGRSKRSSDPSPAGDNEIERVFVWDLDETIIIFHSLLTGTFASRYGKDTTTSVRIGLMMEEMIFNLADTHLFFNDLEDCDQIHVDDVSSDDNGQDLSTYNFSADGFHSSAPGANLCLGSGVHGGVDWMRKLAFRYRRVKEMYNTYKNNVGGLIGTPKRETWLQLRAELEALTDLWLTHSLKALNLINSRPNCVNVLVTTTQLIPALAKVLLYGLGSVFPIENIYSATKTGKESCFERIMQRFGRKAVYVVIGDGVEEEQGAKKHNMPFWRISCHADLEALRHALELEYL
Target sequence (Q15475 whole entry, looked up): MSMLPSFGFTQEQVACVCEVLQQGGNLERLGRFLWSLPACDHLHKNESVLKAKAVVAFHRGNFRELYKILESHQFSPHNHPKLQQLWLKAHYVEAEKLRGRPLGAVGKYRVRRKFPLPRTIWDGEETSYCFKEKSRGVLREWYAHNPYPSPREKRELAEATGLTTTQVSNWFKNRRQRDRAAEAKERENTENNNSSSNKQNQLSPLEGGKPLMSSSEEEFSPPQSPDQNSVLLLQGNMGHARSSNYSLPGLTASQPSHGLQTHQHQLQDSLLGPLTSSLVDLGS
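GST-Six1 + His-Eya2 (5X stock: 250/500 nM); Tris pH 8.0, 300 mM NaCl, 0.05% BSA, 0.02% Tween 20; GSH donor/Ni acceptor beads; 1 h 37 °C dark; AlphaScreen readout.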
TRPML1 inh: blocks the human TRPML1 channel; Q9GZU1; TRPML1-inducible cells, Ca2+ dye fluorescence, FDSS; active compounds read low; inhibition of EC80 agonist-evoked calcium signal; activity change, negative = inhibition, % (no concentration beside the values); 0.02% of 390,000 active; in the data active means activity change below about -50%; inconclusive means about -30% to -50%; inactive means above about -30%;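 note: stimulus is agonist 54-4 at its EC80 concentration; % is set by controls: 0 for no effect and ±100 for the full control effect; compound concentration not given in the record; the text of the record puts the active cut at -80%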
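Calcium fluorescence in TRPML1-DL cells induced overnight with Tet: a 110 s read after compound pin addition, then a 110 s antagonist read after challenge with 54-4 at 4 uM final (EC80).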
Active calls of the source: *; ? = inconclusive; . = no result given; & = joins results of further samples; [ ] = remark or other dose.

SMILES | TRPML1 agonist | D2 agonist | CtBP-E1A inh | PINK1 expr mod | Six1-Eya2 blk | TRPML1 inh
COc1ccc(OC)c(/C=N/c2c(-c3ccc(O)c(OC)c3)nc3ccccn23)c1 | -0.2 | -6.0 | . | 0.9% | -7 | -1
COc1ccc(-c2nc(C#N)c(NCCCn3ccnc3)o2)cc1OC | -0.7 | -1.3 | -24 | 1.4%[38.3 µM] | -19 | -1
COCCCNC(=O)c1nn(-c2ccc(C)cc2)nc1CO | 1.6 | . | . | -1.0% | . | -7
COc1ccc(Cc2nc3ccc(C(=O)NC(C)C)cc3o2)cc1 | 3.7 | 0.5 | 5 | -3.7% | 2 | -5
CCOCCCNC(=O)c1ccc(CN2CCc3ccccc3C2)cc1 | -1.1 | 0.0 | 3 | 6.8% | 2 | -5
O=C(CSc1nc2[nH]c(=O)cc(O)c2s1)Nc1cccc(Br)c1 | -0.5 | 1.6 | . | 2.9% | -10 | 5
Cc1cc(=O)oc2cc(OCC(=O)N3CCCC3)ccc12 | 0.0 | -3.3 | . | 1.8% | 6 | -4
O=S(=O)(N/N=C/c1ccc2c(c1)OCCO2)c1ccccc1 | -0.1 | -1.3 | 8 | 2.9%[38.3 µM] | 1 | -7
COC(=O)c1ccc(NC2(C#N)C(=O)Nc3ccccc32)cc1 (stereo unspecified) | 0.6 | -9.6 | -2 | 3.8% | -4 | -12
CC(C)(C)CC(=O)NC(=S)Nc1ccccc1C(F)(F)F | 1.2 | -0.3 | 7 | -0.4%[38.3 µM] | 4 | -7
C/C(=N\NC(=O)c1ccc(F)cc1)c1ccc(N2CCOCC2)cc1 | 0.0 | -0.9 | -2 | -0.2% | 7 | 33
Cc1ccc(C(=O)O)cc1N1C(=O)c2cccc3cc(Br)cc(c23)C1=O | 0.2 | -4.9 | -2 | -0.6% | -5 | -10
O=C(CSc1cccc[n+]1[O-])N1CCCCCC1 | 0.9 | -1.7 | -5 | 1.5% | 6 | 1
O=C(CN1CCN(c2ccccc2F)CC1)c1ccc(O)cc1O | 0.5 | -0.5 | . | -0.1% | 3 | 13
COc1ccc2c(c1)CCCN2C(N)=O | -0.3 | -1.2 | 0 | 0.0%[38.3 µM] | 3 | -3
COc1cc(NC(=O)c2cc([N+](=O)[O-])ccc2NC(=O)CNC2CCCCC2)cc(OC)c1 | -0.1 | 6.2 | -20 | 4.5% | -10 | -14
Cc1csc(NC(=O)C(F)(F)F)n1 | -0.2 | 1.6 | -2 | 0.5% | 8 | -6
COc1ccc(OC)c(NC(=O)NC2CCCc3ccccc32)c1 (stereo unspecified) | 2.7 | -3.4 | -9 | 2.1% | -10 | 4
C=CCN1CCN(Cc2cnc(Cl)s2)CC1 | 0.9 | 0.3 | -3 | 0.0% | 4 | -3
CCC(C)[C@H](NC(=O)N1CCn2c1nc1ccccc12)C(=O)NCc1ccccc1 (stereo partly specified) | -1.0 | -4.4 | -7 | -0.4% | 0 | 22

Shown as comma-separated lines: 9 of the compounds above.
mol,TRPML1 agonist,D2 agonist,CtBP-E1A inh,PINK1 expr mod,Six1-Eya2 blk,TRPML1 inh
COc1ccc(OC)c(/C=N/c2c(-c3ccc(O)c(OC)c3)nc3ccccn23)c1,-0.2,-6.0,.,0.9%,-7,-1
COc1ccc(-c2nc(C#N)c(NCCCn3ccnc3)o2)cc1OC,-0.7,-1.3,-24,1.4%[38.3 µM],-19,-1
COCCCNC(=O)c1nn(-c2ccc(C)cc2)nc1CO,1.6,.,.,-1.0%,.,-7
COc1ccc(Cc2nc3ccc(C(=O)NC(C)C)cc3o2)cc1,3.7,0.5,5,-3.7%,2,-5
CCOCCCNC(=O)c1ccc(CN2CCc3ccccc3C2)cc1,-1.1,0.0,3,6.8%,2,-5
O=C(CSc1nc2[nH]c(=O)cc(O)c2s1)Nc1cccc(Br)c1,-0.5,1.6,.,2.9%,-10,5
Cc1cc(=O)oc2cc(OCC(=O)N3CCCC3)ccc12,0.0,-3.3,.,1.8%,6,-4
O=S(=O)(N/N=C/c1ccc2c(c1)OCCO2)c1ccccc1,-0.1,-1.3,8,2.9%[38.3 µM],1,-7
COC(=O)c1ccc(NC2(C#N)C(=O)Nc3ccccc32)cc1 (stereo unspecified),0.6,-9.6,-2,3.8%,-4,-12

(next part)
SMILES | TRPML1 agonist | D2 agonist | CtBP-E1A inh | PINK1 expr mod | Six1-Eya2 blk | TRPML1 inh
Cc1cc(C)c(C#N)c(Sc2nnnn2-c2ccccc2)n1 | -1.0 | -2.5 | -11 | 1.4% | ? | 39
O=C(/C=C/c1cccnc1)c1cccc(O)c1 | 0.3 | -3.1 | -9 | -1.0% | 10 | -4
CNS(=O)(=O)c1ccc(NC(=O)c2cnn3c(C(F)F)cc(-c4ccccc4)nc23)cc1 | 0.3&-0.6 | -4.4 | -3 | 2.5%&2.5% | 7 | 12&-12
CC1(C)CC2(C)OC(=N)C1(C#N)C2(C#N)C#N (stereo unspecified) | 0.3 | -5.5 | -18 | -0.4% | -4 | 15
Cc1ccccc1C(=O)Nn1cnnc1 | 0.5 | -3.7 | 1 | 2.2% | 6 | 11
C=CCC[C@H](Cc1ccc(F)cc1)C(=O)OC[C@H](Cc1c[nH]c2ccccc12)NC(=O)[C@H](CC=C)CC(=O)N(CCO)Cc1ccccc1 | -0.5 | -6.8 | -11 | 0.8% | -15 | 2
CCN(CC)c1ccc(NC(=O)c2cccc(C)c2OC)c(C)c1 | 1.3 | 0.7 | ? | 2.4%[38.3 µM] | ? | 13
O=C(CN1CCCN(Cc2ccccc2F)S1(=O)=O)Nc1ccc(F)c(Cl)c1 | -0.1 | . | . | -0.8% | . | -7
CC(C)n1ncc2c(C(=O)N3CCN(Cc4ccc(Cl)s4)CC3)cc(C3CC3)nc21 | 2.1 | -0.9 | -5 | 11% | -6 | -3
NC(=O)CSc1nc2cc([N+](=O)[O-])ccc2n1-c1cccc(C(F)(F)F)c1 | -0.7 | -1.8 | 4 | 0.0% | -8 | -10
COCCN1C(=O)N[C@@H](c2cccs2)C(C(C)=O)=C1C | 0.1 | -1.5 | . | 0.3% | -4 | -18
CC(c1ccco1)N(C(=O)C12CC3CC(CC(C)(C3)C1)C2)c1ccccn1 (stereo unspecified) | 1.6 | -6.3 | -3 | 0.3% | -7 | 3
CCOc1ncccc1C(=O)N1CCCSC1=Nc1ccc(C(C)=O)cc1 | -0.1 | -7.2 | -7 | 1.3% | 1 | 0
COc1ccc(CC2(CO)CCN(S(=O)(=O)c3cccc4cccnc34)CC2)cc1 | -0.2 | -4.6 | -2 | 0.0% | -5 | -8
COC(=O)c1cccc(C(=O)N2CCC(CO)(CCc3ccccc3)CC2)c1 | 0.1 | -0.3 | -1 | 1.9% | 3 | -7
Cc1ccc(S(=O)(=O)N2CCOCC2)cc1NC(=O)CN(C)CC(=O)Nc1cccc(F)c1 | -0.1 | 1.8 | -2 | 1.8% | -17 | -5
O=C(Nc1ccccc1-c1ccccc1)c1cnccn1 | -1.3 | -0.3 | 8 | 2.4% | 9 | -7
CCNCCNC(=O)c1c(O)c2ccccc2n(CC)c1=O | 2.6 | -0.7 | -2 | 0.8%[38.3 µM] | -4 | -13
CC(c1ccccc1)C1CC(=O)N(Cc2ccccc2)C1=O (stereo unspecified) | -0.9 | 3.8 | 9 | 9.6% | 1 | 6
CC(=O)c1cccc(NC(=O)CSc2nc(C3CC3)nc3ccccc23)c1 | 0.3 | -2.6 | -7 | 0.3% | -2 | 0
Cc1ccc(NC(=O)CSc2nnc(C(F)(F)F)n2C)cc1[N+](=O)[O-] | -0.3 | -4.4 | 6 | 0.3% | 1 | 20
N/C(Cc1ccc([N+](=O)[O-])cc1)=N\OC(=O)c1ccco1 | -0.1 | 53* | . | 0.3% | 2 | 8
CCNC(=S)Nc1cccc(S(=O)(=O)NC2=NCCC2)c1 | 0.1 | -7.2 | -11 | -0.9% | -1 | 17
COc1ccc(/C=N/NC(=O)c2cccc(Br)c2)cc1CN1CCOCC1 | 0.7 | 6.4 | 5 | 1.3% | 2 | -17
CC(=O)Nc1ccc(S(=O)(=O)Nc2ccc(C(=O)NCC(=O)O)cc2)cc1 | 0.8 | -0.4 | 0 | 1.2% | 15 | -16
COc1ccc(CNC(=O)CCCSc2ccccc2)cc1 | -0.5 | -0.7 | 4 | 0.3% | 2 | 1
Cc1occc1-c1nnc(SC(C)C(=O)Nc2ccccc2F)o1 (stereo unspecified) | -0.1 | -2.9 | 1 | -1.0% | 0 | 26
Cc1cccc(C)c1OCC(=O)OCC(=O)c1ccc2c(c1)NC(=O)CO2 | 0.7 | -1.4 | 0 | -0.7% | 3 | -4
Cc1cc(F)ccc1S(=O)(=O)Nc1ncnc2sccc12 | -0.3 | 2.5 | . | 2.7% | 4 | -9
Cc1ccc(C)c(NC(=O)c2oc(=O)c3ccccc3c2-c2ccccc2)c1 | -0.5&2.4 | -7.6 | 10 | -0.2%&7.6% | -4 | 1&-2
Cc1ccc(C)c(Cn2c(=O)cc(C)c3c(C)nn(-c4cccc(F)c4)c32)c1 | -0.1 | . | . | 0.6% | . | -24
CCOC(=O)CC(C#N)c1cn(C)c2ccccc12 (stereo unspecified) | 0.0 | -2.9 | -1 | 2.2%[38.3 µM] | -1 | -10
COCCN=C1Sc2nc3ccc(C)cc3cc2CN1Cc1ccco1 | 3.4 | -2.3 | -1 | -0.3% | -9 | 5
COc1ccccc1NC(=O)c1ccc(NS(=O)(=O)c2c(C)noc2C)cc1 | -0.9 | -5.9 | -1 | 1.5% | 0 | 16
O=C(CN1C(=O)NC2(CCCC2)C1=O)Nc1ccc(S(=O)(=O)N2CCOCC2)cc1 | 1.5 | 1.6 | . | 2.1% | 13 | 10
CC(C)N1CCc2[nH]c(=S)[nH]c(=O)c2C1 | -0.2 | -1.7 | 20 | -0.6% | -2 | 2
CC(O)C(=O)N/N=C/c1ccccc1C(=O)O (stereo unspecified) | 0.2 | -4.9 | -1 | -0.4% | -2 | -14
Cc1ccc(O)c(CNc2nc3ccccc3[nH]2)c1 | -0.1 | -0.6 | . | 2.7% | -2 | 7
CN(C(=O)CCN1C(=O)c2ccccc2C1=O)c1ccccc1 | . | 2.7 | . | -0.9% | 4 | .
COCCCNC(=O)c1ccc(CNS(=O)(=O)c2ccc(NC(C)=O)cc2)cc1 | 0.9 | -2.7 | 5 | -1.0% | 3 | 6
Cc1ccc(C(=O)O)cc1Nc1ncnc2sc3c(c12)CCC3 | 1.8 | -0.5 | 1 | -1.0% | -16 | 14
